# Screening data: PubChem BioAssay, several laboratories
# LANA-H2A inh = blockers of LANA interaction with H2A/H2B – biochemical, FP readout, HTS, primary screen. Protein LANA1 (Human herpesvirus 8 type P (isolate GK18)), Q9QR71. inhibition, % (test concentration not listed). cell-free LANA-H2A/H2B peptide, fluorescence polarization. hit rate 0.6% among 320,000. AID 2629, 2010; in the data active = inhibition mostly above about 10%, no sharp cut-off; inactive = mostly below about 6.7%;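 note: stock transfer was 7.5 nL into about 10 µL; 0% = median of vehicle wells and 100% = median of positive control wells; one replicate is shown; the record names a cut of 25% in any replicate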
# Calb FLC = C. albicans growth inhibition with fluconazole, primary screen, CaCi-2 strain, Alamar Blue fluorescence. C. albicans CaCi-2 (fluconazole-resistant clinical isolate) + fluconazole, 48 h. growth inhibition, % (test concentration not listed). AID 1979, 2009. hit rate 0.57% among 300,000;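 active = most replicates above 75%; inconclusive = exactly half above 75%; inactive = most below 75%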;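 note: all wells also contain fluconazole at 8 µg/ml as a sub-toxic cotreatment; 0% = median of DMSO wells and 100% = median of geldanamycin control wells; wells of about 8 µL received 7.5 nL stock; the first replicate is given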
# B2AR ag = beta2AR agonists driving receptor internalization, primary screen, cell-based, FAP fluorogen, flow cytometry. Beta-2 adrenergic receptor (Homo sapiens), P07550. Am2.2-beta2AR cells; reference of the scale not given here. response, % (no concentration beside the values). hit rate 0.43% among 340,000. AID 504454, 2011;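 active = response above a set limit, near 3 SD of response in nonfluorescent compounds, cut at about 42% in these data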;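 note: stock transfer was 100 nL into about 11 µL; a reference agonist was the positive control; negative values mostly stem from fluorescent compounds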
# ALR inh = inhibitors of human ALR sulfhydryl oxidase, primary screen, biochemical, H2O2 detection, HRP-luminol luminescence, single point | FAD-linked sulfhydryl oxidase ALR (Homo sapiens), P55789 | purified ALR, DTT oxidation | inhibition, % (test concentration not listed) | hit rate 3.8% among 290,000 | AID 485317, 2010;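 active = mean and each replicate at 75% or more; inconclusive = only one of the two met; inactive = neither met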;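 note: stock transfer was 7.5 nL into about 7.5 µL; 0% = neutral wells and 100% = wells with inactivated enzyme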
# Target sequence (P55789 whole entry, looked up): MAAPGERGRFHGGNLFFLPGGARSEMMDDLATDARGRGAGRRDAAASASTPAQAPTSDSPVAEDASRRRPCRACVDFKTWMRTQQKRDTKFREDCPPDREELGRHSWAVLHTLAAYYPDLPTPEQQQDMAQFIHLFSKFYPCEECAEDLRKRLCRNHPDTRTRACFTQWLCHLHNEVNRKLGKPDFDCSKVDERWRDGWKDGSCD
# HNF4A DNA FP = change in binding of human HNF4A to DNA, primary screen, biochemical, fluorescence polarization, FITC-DNA; Hepatocyte nuclear factor 4-alpha (Homo sapiens), P41235; 1 h; activity change, % at 10 µM; hit rate 0.3% among 360,000; AID 1224865, 2016; in the data active = activity change above about 30%, passing the limit was not always enough;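 note: controls were the assay level and a saturating level of protein; the project sought stronger binding though the title names inhibitors; some compounds called inactive have numbers as strong as hits; positive values seem to mean higher polarization but the record does not say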
# Target sequence (P41235 whole entry, looked up): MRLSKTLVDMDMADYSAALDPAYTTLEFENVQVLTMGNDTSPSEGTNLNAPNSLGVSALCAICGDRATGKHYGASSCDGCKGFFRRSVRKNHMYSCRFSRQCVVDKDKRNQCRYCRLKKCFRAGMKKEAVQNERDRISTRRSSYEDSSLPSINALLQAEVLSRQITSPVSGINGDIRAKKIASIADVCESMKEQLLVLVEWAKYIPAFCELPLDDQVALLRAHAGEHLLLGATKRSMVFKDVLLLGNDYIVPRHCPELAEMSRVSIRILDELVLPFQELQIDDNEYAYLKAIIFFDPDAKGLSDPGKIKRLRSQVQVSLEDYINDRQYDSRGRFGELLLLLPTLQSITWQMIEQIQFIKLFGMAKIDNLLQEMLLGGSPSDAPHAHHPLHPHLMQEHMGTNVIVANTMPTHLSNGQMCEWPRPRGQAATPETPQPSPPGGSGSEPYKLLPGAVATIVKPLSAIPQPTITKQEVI
# RanGTP-Imp inh = inhibitors of RanGTP-importin-beta interaction, primary screen, biochemical, FRET, CFP-Ran, YFP-importin-beta, homogeneous; cell-free CFP-Ran/YFP-importin-beta FRET ratio; Ran GTPase (GTP-bound) - importin-beta complex; hit rate 1.1% among 300,000; inhibition, % (test concentration not listed);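 active = most replicates above 15%; inconclusive = exactly half above 15%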;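 note: 0% = DMSO wells and 100% = Ran loaded with GDP instead of GTP; wells of about 40 µL received 100 nL stock; the first replicate is given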
# Vif TR-FRET = inhibitors of Vif binding to APOBEC3G peptide, primary screen, biochemical, TR-FRET, GST-Vif 1-94, biotin-A3G peptide, dose response retest (AID 1117319) | TR-FRET GST-Vif / biotin-A3G peptide binding; higher % means a stronger effect; test concentration not given here; strong numbers were not always called active | hit rate 0.57% among 260,000 | inhibition, %; hits with a dose series show IC50 in µM | Virion infectivity factor (Human immunodeficiency virus type 1 group M subtype B (isolate …;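 active = above the screen mean plus three standard deviations and confirmed in dose response; inconclusive = results disagree or hit not tested in dose response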;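 note: Vif residues 1-94 fused to GST binding biotinylated APOBEC3G peptide 110-148; 0% = full assay without inhibitor and 100% = GST in place of GST-Vif; retest series ran down from 100 µM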
# Numbers without * were called inactive; ? = inconclusive; . = no result given; & = joins results of further samples.
nr	Structure	LANA-H2A inh	Calb FLC	B2AR ag	ALR inh	HNF4A DNA FP	RanGTP-Imp inh	Vif TR-FRET
1	CCOC(=O)c1sc(NC(=O)c2cc3n(n2)C(C(F)(F)F)CC(c2cccs2)N3)c(C(=O)OCC)c1C (configuration not stated)	-0.7	-13.0	9.1	-4.5	2.8	4.5	-2.2%
2	Cc1ccc(Sc2ccc(NC(=O)CCN3C(=O)NC4(CCCC4)C3=O)cc2)c(C)c1	-4.8	.	1.8	-0.3	-0.7	.	-12.6%
3	CC(C)C[C@H](NC(=O)[C@H](Cc1ccccc1)n1c(=O)[nH]c2ccccc2c1=O)C(=O)N1CCC[C@H]1C(=O)O	1.3	-2.1	7.7	32.3	3.9	-0.6	.
4	Cc1ccsc1C(=O)N1CCN(S(=O)(=O)c2cccs2)CC1	149.2*	-5.5	-2.0	-3.5	3.6	2.6	-0.2%
5	Cc1cc(C)cc(-n2nnc(C(=O)NCc3ccccc3)c2N)c1	1.7	-19.0	1.5	-3.6	0.9	7.9	-0.3%
6	CCCC(=O)Nc1ccc(C(=O)COC(=O)C2=COCCO2)cc1	.	.	-1.0	.	6.5	.	4.6%
7	CCCNC(=O)COc1coc(CN2CCN(Cc3ccccc3)CC2)cc1=O	2.9	-2.8	-1.9	-3.8	4.2	-0.3	.
8	O=C(c1cc(-c2ccccc2Cl)nc2ccccc12)N1CCOCC1	2.3	-2.6	-2.8	-14.9	3.5	-1.9	.
9	COc1ccccc1NS(=O)(=O)c1cc(NC(=S)NCC2CCCO2)ccc1C (configuration not stated)	3.8	1.4	8.9	7.1	3.9	4.1	0.9%
10	CCSc1cc(N2CCOCC2)nc(-c2ccccc2)n1	-4.2	-10.8	-5.3	-3.9	0.6	0.0	-4.8%
11	N/C(=N\OC(=O)Oc1ccccc1)c1cccc([N+](=O)[O-])c1	7.4	-12.8	-2.4	52.7	-1.3	-4.4	7.4%
12	CN(C)C(=O)CCc1ccc2c3c([nH]c2c1)[C@]1(C)[C@@H](C(=O)N2CCOCC2)C[C@H](CC(=O)NCCN2CCOCC2)C(=O)N1CC3	.	.	-4.3	.	1.3	.	2.7%
13	CC/C(C)=N/Nc1nc(-c2cc3cccc(OC)c3oc2=O)cs1	-3.5	5.8	2.8	98.5*	-3.9	0.3	10.0%
14	Cn1ncc2c(Nc3ccc(Cl)c(Cl)c3)ncnc21	0.8	36.1	-4.2	.	-2.5	1.2	.
15	Cc1noc(C)c1C(=O)Nc1ccccc1-c1ccccc1	0.7	34.9	-16.1	-19.1	-0.7	?	-4.4%
16	Cc1c(C(=O)N2CCCCC2)c(S(=O)(=O)NCCc2ccc(Cl)cc2)c(C)n1C	-1.6	-3.6	7.5	-0.2	2.2	?	3.5%
17	O=C(N/N=C/c1ccc(F)cc1)c1ccc(OCc2ccccc2)cc1	1.1	2.0	-1.3	.	-0.7	-2.5	3.6%
18	CC(C)(C)NC(=O)COc1ccc(CNCCc2ccccc2)cc1	3.8	12.2	-9.5	-21.6	-1.7	0.2	-1.7%
19	N#CCCn1cnc2c(=S)nc[nH]c21	9.9*	3.2	2.6	0.3	3.5	4.6	2.5%
20	Cc1cccc(-n2nc3c(c2NC(=O)c2cc4ccccc4o2)CS(=O)(=O)C3)c1	3.3	7.7	0.9	-9.0	-0.3	-0.4	.
21	Cc1cc(N(CCO)CCO)ccc1N=Nc1cc(F)ccc1F	-3.4	3.6	-2.1	99.2*	8.3	-3.9	-8.6%
22	CC(C)(C)c1ccc(NC(=O)N2CCCN(c3c(Cl)cncc3Cl)CC2)cc1	0.4	23.4	2.7	-2.6	6.3	-0.3	-1.4%
23	Cc1ccc(S(=O)(=O)NCCSc2nnnn2-c2ccc(C(N)=O)cc2)cc1	1.9	-6.1	6.9	-0.1	4.3	0.6	-6.6%
24	O=C(NCCc1ccco1)C(=O)NCC1CCCN1S(=O)(=O)c1ccccc1 (configuration not stated)	2.3	-1.8	-3.4	2.0	-1.4	5.1	4.2%
25	COc1cc(SC)ccc1C(=O)N1CCN(c2ccccc2OC)CC1	2.9	6.5	-6.5	40.8	3.8	0.4	.
26	Cc1ccnc(NC(=O)Nc2cccc(F)c2)c1	7.0	-12.5	-2.7	-19.1	5.0	-2.0	6.6%
27	COc1cc(NC(=O)C2CC2)c(C(=O)O)cc1OC	-1.4	-2.9	1.5	-12.0	1.1	3.0	11.7%
28	CCOc1cc(C(C(=O)NCC2CCCO2)N(C(=O)Cn2nnc3ccccc32)c2ccc(C(C)=O)cc2)ccc1O (configuration not stated)	-5.0	-9.2	-6.8	.	-2.7	0.3	.
29	COc1ccc(C2(C(=O)Nc3ccccc3)CCOCC2)cc1	2.9	-5.4	-6.0	-4.8	-2.4	3.3	-12.4%
30	O=c1oc(-c2ccc(Br)o2)nc2ccccc12	2.9	0.3	-8.2	-10.4	1.5	4.0	9.1%
31	Cc1ccsc1CN(C)C(=O)C1CCC(=O)N(CCc2cccc(F)c2)C1 (configuration not stated)	-0.3	5.2	-6.6	-4.6	1.2	-1.9	.
32	O=C(Nc1ccccc1F)c1cc(-c2ccco2)nc2ccccc12	1.8	-6.2	3.3	1.9	-5.9	-2.7	.
33	Cc1cc(C)n(C(=O)CNC(=O)c2ccc(C(C)(C)C)cc2)n1	0.9	3.7	13.4	0.1	-0.2	-2.4	.
34	Cn1nc(-c2ccc(Cl)cc2)c2cc(C(=O)NCCN3CCOCC3)sc21	0.7	0.5	-4.7	93.1*	-2.4	136.4*	-0.8%
35	COC(=O)[C@H](CCSC)NC(=O)NCCc1ccc(F)cc1	3.6	-13.5	34.5	-1.1	3.3	0.2	0.4%
36	CCc1c(O)nc(SCC(=O)NCc2ccco2)[nH]c1=O	3.2	-12.9	0.3	97.9*	3.1	-5.2	4.5%
37	Cc1ccc(-n2c(C)nn(-c3ncc(C(F)(F)F)cc3Cl)c2=O)cc1	4.5	0.7	-16.1	-20.1	2.7	0.9	12.0%
38	CN(C)c1nc(N(C)C)c2cnn(C)c2n1	.	.	-8.2	.	-0.8	.	-0.9%
39	COC(=O)c1cnn(-c2ccc(C)c(C)c2)c1-n1cccc1	-2.7	3.0	-10.8	-17.8	4.6	1.0	3.2%
40	Cc1cccc(OCC(=O)NS(=O)(=O)c2ccc(Br)cc2)c1	0.0	0.6	15.2	0.4	4.1	-0.5	-3.8%
41	C#CCOCCOCCOCCNc1nc(N2CCN(C(=O)[C@H](CCCCN)n3cc([C@@H](N)C(C)CC)nn3)CC2)nc(N2CCN(C(=O)[C@H](Cc3cc4ccccc4[nH]3)n3cc([C@@H](N)CC(C)C)nn3)CC2)n1 (some centres not stated)	-9.7	12.8	-4.5	-47.6	49.5*	?	-4.0%
42	O=C(Nc1ccn(Cc2c(F)c(F)cc(F)c2F)n1)c1ccc(COc2cc(Cl)ccc2Cl)o1	-3.1	-20.3	-13.4	-1.9	-3.5	4.4	-2.5%
43	COc1ccc(C(=O)NCc2ccc3[nH]c(C)cc3c2)cc1OC	-7.0	-5.6	-3.6	.	0.3	0.1	1.1%
44	CC(=O)N1CN(C2CCCC2)Cc2c1sc1c2CCCC1	0.4	17.6	-2.6	-4.4	3.2	1.1	?
45	CCCCNC(=S)N(CCN(CC)CC)Cc1cc2cc3c(cc2[nH]c1=O)OCCO3	-3.0	-7.4	-0.3	.	13.1	-12.5	.
46	C=CCn1c(Cc2cccs2)nnc1SCC(=O)c1cccc(Br)c1	1.2	9.1	-8.0	.	-0.9	-3.1	5.8%
47	C/C(N)=C(/C#N)C(=O)CSc1nnc(Nc2cccc(C)c2)s1	-2.5	29.1	0.8	.	4.4&-15.6	1.2	29.1%
48	COc1ccc(C)cc1NC(=O)C(OC(=O)c1ccc([N+](=O)[O-])o1)c1ccccc1 (configuration not stated)	-3.3	?	-0.7	-53.4	0.9	-2.6	8.1%
49	CSC1=NCCN1C(=O)c1ccc2c(c1)OCO2	3.2	-1.5	5.0	-0.9	0.0	4.6	-10.8%
50	CCC(=O)N1c2ccc(S(=O)(=O)N3CCN(c4cc(C)ccc4C)CC3)cc2CC1C (configuration not stated)	-5.2	13.6	-2.0	6.3	-4.0	0.9	1.9%

# Remaining list, next part:
nr	Structure	LANA-H2A inh	Calb FLC	B2AR ag	ALR inh	HNF4A DNA FP	RanGTP-Imp inh	Vif TR-FRET
51	COc1ccc(C2CC(c3cccs3)=NN2c2nc(-c3ccccc3)cs2)cc1OC (configuration not stated)	1.6	6.3	-7.1	-20.6	4.7	56.3*	-5.1%
52	Fc1ccc(C(c2nnnn2Cc2cccs2)N2CCN(c3ccccc3)CC2)cc1 (configuration not stated)	2.2	10.8	24.8	-0.3	-1.3	4.2	-0.3%
53	Cn1cc([N+](=O)[O-])c(C(=O)NCc2cc3cc(Cl)ccc3[nH]2)n1	-5.1	-1.1	-4.5	35.1	1.2	-0.9	.
54	Cc1ccc(CCNC(=O)C2CCC(=O)N2Cc2cccnc2)cc1 (configuration not stated)	-2.7	-5.6	3.3	-3.1	0.4	3.5	5.3%
55	CC(C)CN(C(=O)c1ccc(Br)o1)C1CCS(=O)(=O)C1 (configuration not stated)	4.4	-1.3	3.2	1.2	-1.7	-4.4	5.9%
56	Cc1nc2cc(N3CCOCC3)c(NC(=O)C3CC3)cc2c(=O)n1Cc1ccccc1	56.1*	2.0	49.4*	6.4	-1.6	5.4	.
57	COc1ccc(NCc2nnc(SCC(=O)c3ccc(OC)cc3)o2)cc1	-1.6	-2.4	0.8	98.4*	1.2	3.5	-1.1%
58	COC(=O)/C=C/C(=O)Nc1ccc(O)c(Cl)c1	2.2	1.7	2.8	99.6*	-1.3	?	?
59	Cc1ccc(C(=O)NC(=S)Nc2cccc3nsnc23)cc1	0.4	-6.4	-1.5	-28.8	1.1	1.2	18.7%
60	CC(C)[C@H](NC(=O)N1c2ccccc2NC(=O)[C@@H]1C(C)C)C(=O)N[C@H](Cc1ccccc1)C(=O)O	-1.7	-6.8	3.2	-17.6	1.9	1.6	.
61	O=C(COC(=O)c1ccc(O)cc1O)NC1CCS(=O)(=O)C1 (configuration not stated)	-1.6	-0.4	-0.7	10.8	-2.0	-3.7	-3.6%
62	O=C(Cn1nc(Cl)nc1Cl)c1cc2ccccc2oc1=O	2.8	-9.7	0.1	19.1	-0.6	9.6	-5.0%
63	Cc1ccc(-n2c(C)cc(C(=O)Cn3nc(C(=O)O)c4ccccc4c3=O)c2C)cc1	-8.1	10.7	19.0	-8.1	2.4	-1.6	-5.2%
64	CC1(C)CC(=O)C2=C(C1)OC(/N=C/N1CCCC1)=C(C#N)C2c1ccccc1 (configuration not stated)	7.1	-0.2	-7.6	-8.4	-1.7	3.0	-6.5%
65	CC(/C=N/NC(=O)c1cc(-c2cccnc2)nc2c1c(C)nn2-c1ccccc1)=C\c1ccccc1	-4.2	-2.1	20.8	-4.7	-0.3	8.9	11.1%
66	Cc1nc(SCC(=O)N(C)Cc2ccco2)c2c(C)c(C)sc2n1	-2.7	2.3	14.2	3.7	2.7	-1.2	1.8%
